MARV entry inh – qHTS for inhibitors of binding or entry into cells for Marburg Virus | Marburg virus pseudotyped entry inhibition, cell reporter; control for the full effect not named in the record; about a third of the inactives were read at about 46 µM | Potency, µM (top dose mostly 37.8 µM), inactives show at the highest dose activity change, negative = inhibition, actives largely listed as inhibitors | 300,000 compounds, 1.8% hits | AID 540276, 2011; active = well fitted inhibition curve with a large enough effect; inconclusive = small, poorly fitted or top-dose-only effect, or effect the other way; inactive = flat fitted curve, though single readings scatter; tested in HEK293 cells; about a fifth of its hits are not listed in these tables; also: % is scaled to controls: 0 for no effect and ±100 for the full control effect; luciferase read-out
LASV entry inh – qHTS for Inhibitors of binding or entry into cells for Lassa Virus. Lassa virus pseudotype entry inhibition, cell reporter; control for the full effect not named in the record. Potency, µM (highest dose often 37.9 µM), for the others: at the highest dose activity change, negative = inhibition, hits mostly inhibitors. 300,000 compounds, 1.2% hits. AID 540256, 2011; active means well fitted inhibition curve with a large enough effect; inconclusive means small, poorly fitted or top-dose-only effect, or effect the other way; inactive means flat fitted curve, though single readings scatter; tested in HEK293 cells; also: % is scaled to controls: 0 for no effect and ±100 for the full control effect; nearly all actives have a fitted effect of over 50% in size; luciferase read-out
StopGo reporter – High Throughput Screening for Foot and Mouth Disease Virus Antivirals. human cells with a luciferase reporter of 2A StopGo recoding; control for the full effect not named in the record. Potency, µM (top dose mostly 57.9 µM), inactives show at the top dose signal change, negative = less light. 410,000 compounds, 1.2% hits; active = well fitted falling curve with a large enough effect; inconclusive = small, poorly fitted or top-dose-only effect; inactive = no such curve, though single readings can be large or run the other way; tested in HEK293T cells; also: % is scaled to controls: 0 for no effect and ±100 for the full control effect; nearly all actives have a fitted effect of over 45% in size; luciferase light after 4 h
Cruzain noTriton – qHTS Assay for Promiscuous and Specific Inhibitors of Cruzain (without detergent); Cruzipain (Trypanosoma cruzi), P25779; purified cruzain, Z-FR-AMC fluorescence, no detergent; Potency, µM, inactives show max response, negative = inhibition, usual class: inhibitors; 200,000 compounds, 2.3% hits; AID 1476, 2009; active = well fitted curve in the direction sought with a large enough effect; inconclusive = small, poorly fitted or top-dose-only effect, or another doubt; inactive = no such curve, though single readings can be large; an effect the other way counts as inactive or inconclusive;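 also: plate controls were enzyme without inhibitor for no effect and buffer without enzyme for full effect; nearly all actives have a fitted effect of over 40% in size; top concentration of the series not given in the record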
Target sequence (P25779 123-467 limits assumed): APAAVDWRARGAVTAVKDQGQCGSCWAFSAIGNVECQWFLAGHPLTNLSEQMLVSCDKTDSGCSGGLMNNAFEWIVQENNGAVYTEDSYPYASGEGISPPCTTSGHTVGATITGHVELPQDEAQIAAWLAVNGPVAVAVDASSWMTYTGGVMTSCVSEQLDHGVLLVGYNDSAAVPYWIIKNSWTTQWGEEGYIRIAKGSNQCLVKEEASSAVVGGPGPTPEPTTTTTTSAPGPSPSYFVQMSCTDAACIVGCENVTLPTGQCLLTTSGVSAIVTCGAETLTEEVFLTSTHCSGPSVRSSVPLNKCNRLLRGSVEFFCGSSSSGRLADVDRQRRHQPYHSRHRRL
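Detergent-free condition (0.00005% Triton X-100) in acetate buffer pH 5.5 with DTT. 1.5 nM enzyme and compound were pre-mixed 15 min, then 2 uM Z-FR-AMC substrate added; reaction progress from fluorescence change between first and third reads (60 s).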
RE007 growth inh – qHTS Assay for Inhibitors of the HIV-1 protein Vpr | S. pombe RE007 Vpr strain, BacTiter-Glo ATP luminescence, 24 h; control for the full effect not named in the record | Potency, µM (series often up to 92.2 µM), without a hit: at the highest dose activity change, negative = less growth | 360,000 compounds, 0.21% hits | AID 651644, 2012; active = well fitted falling curve with a large enough effect; inconclusive = small, poorly fitted or top-dose-only effect; inactive = no such curve, though single readings can be large or run the other way;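 also: % is scaled to controls: 0 for no effect and ±100 for the full control effect; nearly all actives have a fitted effect of over 50% in size; the assay follows cell death caused by Vpr and the record does not say whether a fall means rescue or toxicity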
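Fission yeast RE007 carrying one integrated HIV-1 vpr copy, seeded at OD 0.01 in PMG+AL medium with 23 nL pinned compound. Grown 24 h at 30 degrees; viability read by BacTiter-Glo luminescence after 5 min.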
NS1 inh – qHTS Assay for Inhibitors of Influenza NS1 Protein Function; Potency, µM (titrated, usually from 46.1 µM), for inactives: at the top dose activity, positive = more growth; 270,000 compounds, 0.4% hits; AID 2326, 2010; S. cerevisiae slowed by influenza A NS1, growth recovery by OD600; also: actives are rising curves; nearly all actives have a fitted effect of over 50% in size
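Growth recovery, yeast-based: influenza A NS1 expressed in S. cerevisiae causes slow growth, and suppressors are detected by OD600. The parent strain without NS1 is used as positive control.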
SARS PLpro yeast – qHTS of Yeast-based Assay for SARS-CoV PLP; AID 485353, 2010; Potency, µM (doses to about 32.9 µM), for the others: at the highest dose activity, positive = growth rescue; S. cerevisiae expressing SARS-CoV PLpro, growth rescue; control for the full effect not named in the record; 330,000 compounds, 0.19% hits; also: 0% is about no effect; nearly all actives have a fitted effect of over 55% in size; growth read by luminescence after 48 h
Cruzain inh Det – qHTS Assay for Promiscuous and Specific Inhibitors of Cruzain (with detergent); 200,000 compounds, 0.43% hits; AID 1478, 2009; Cruzipain (Trypanosoma cruzi), P25779; Potency, µM, inactives show max response, negative = inhibition, usual class: inhibitors; purified cruzain, Z-FR-AMC fluorescence, 0.01% Triton; active = well fitted curve in the direction sought with a large enough effect; inconclusive = small, poorly fitted or top-dose-only effect, or another doubt; inactive = no such curve, though single readings can be large; an effect the other way counts as inactive or inconclusive;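 also: plate controls were neutral wells for no effect and buffer without enzyme for full effect; nearly all actives have a fitted effect of over 40% in size; top concentration of the series not given in the record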
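Z-FR-AMC hydrolysis (2 uM substrate) by cruzain (1.5 nM) monitored kinetically at ex 360/em 450 nm after 15 min room-temperature compound exposure; 0.01% Triton X-100, pH 5.5, 5 mM DTT.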
Active calls of the source: *; ? = inconclusive; nt = not tested or not shown; & = joins results of further samples; [ ] = dose if it differs, or a comment. Unless noted, calls follow the shape of the dose curve; as a rule, active means well fitted rising curve with a large enough effect; inconclusive means small, poorly fitted or top-dose-only effect; inactive means no such curve, though single readings can be large or run the other way. Potency is read from the fitted curve at half-maximal effect.

SMILES | MARV entry inh | LASV entry inh | StopGo reporter | Cruzain noTriton | RE007 growth inh | NS1 inh | SARS PLpro yeast | Cruzain inh Det
COc1ccccc1N(CC(=O)NC1CCCC1)C(=O)CNC(=O)c1cccs1 | 15%[46.1 µM] | -13%[46.1 µM] | 12% | nt | 13% | 9% | -2% | nt
CN(C)CCCOC(=O)Cc1ccc(Cl)cc1 | 8% | -13% | -9% | 5% | -8% | 2% | 12% | 2.2%
O=C(Nc1ccc(Cl)cc1)Nc1ccc(Oc2cccnc2)nc1 | nt | nt | -18% | nt | 7% | -3% | 0% | nt
C=CCn1c(SCC(=O)c2ccc(OC)cc2)nnc1-c1ccc2c(c1)OCO2 | 10% | 0% | -14% | -10% | 0% | -18% | 3% | -6.7%
O=C(Nc1cccc(C(=O)O)c1)/C(=C\c1ccc2c(c1)OCO2)NC(=O)c1ccco1 | nt | nt | 7% | nt | 31% | 4% | 0% | nt
CC1CC(C)CN(S(=O)(=O)c2ccc3c(c2)CC(C)N3C(=O)C2CCC2)C1 (stereo unspecified) | nt | nt | -17% | nt | 14% | 18% | 1% | nt
CC(C)=C1C2CCC1C1C(=O)N(c3nccs3)C(=O)C21 (stereo unspecified) | ? | 16% | 0% | -2% | -21% | 5% | 18% | -2.0%
CN(C)c1ccc(NC(=O)CSc2nc(-c3ccco3)cc(C(F)(F)F)n2)cc1 | ? | -2%[46.1 µM] | -2% | 8% | nt | nt | nt | -2.0%
CC(C)OC(=O)CSc1nnc(-c2cnccn2)n1-c1ccccc1 | -2% | 2% | -17% | 11% | 1% | 1% | 15% | -0.1%
CC(=O)Nc1c(C(=O)Nc2cccc(C)c2)nnn1-c1ccc(C)cc1 | 16%[46.1 µM] | ? | 11% | ? | nt | nt | nt | -9.0%
COc1cccc(CN(C)C(=O)c2ccccc2SCC(=O)N2CCCC2)c1 | -4% | ? | 17% | nt | 16% | nt | 0% | nt
Clc1ccc(OCc2nc(-c3ccc(-n4cccc4)cc3)no2)cc1 | -5%[46.1 µM] | 24%[46.1 µM] | -15% | -10% | nt | nt | nt | 1.7%
COc1ccc(-n2c(Cn3nc(C(F)(F)F)cc3C)n[nH]c2=S)cc1 | -4% | -1% | -4% | 4% | 6% | 4% | 1% | -1.9%
COc1cccc(CNC(=O)Nc2cn(CC(C)C)c(=O)c3ccccc23)c1 | nt | 14%[46.1 µM] | 3% | -21% | nt | nt | nt | -10%
CC(C)Cc1ccc(S(=O)(=O)Nc2ccc3[nH]c(=O)[nH]c3c2)cc1 | ? | ? | ? | -2% | 11% | 7% | -4% | -4.0%
COC(=O)c1ccc(CNC(=O)COC(=O)c2cc(Cl)nc(Cl)c2)cc1 | 12% | ? | -13% | nt | 4% | nt | 1% | nt
Nc1ccc(S(=O)C(F)(F)F)cc1 (stereo unspecified) | 7%[46.1 µM] | 11% | -12% | nt | 1% | nt | 3% | nt
O=S(=O)(c1cccc(C(F)(F)F)c1)N1CCC(c2cc(-c3cccc4ccccc34)n[nH]2)CC1 | ? | ? | -20% | ? | 11% | 20% | -3% | -1.0%
CCOc1ccc(S(=O)(=O)N2CCN(c3ncccn3)CC2)cc1 | -7%[46.1 µM] | 16%[46.1 µM] | -28% | nt | -4% | 8% | 5% | nt
O=c1[nH]nc(SC2CCCCC2)c(=O)[nH]1 | 12% | 1%[46.1 µM] | 22% | nt | 16% | nt | nt | nt
CCOC(=O)C(=O)NNc1ccc(F)cc1 | 2% | -17% | 1% | nt | 191% | -45% | -2% | nt
COc1cc(CNc2ccc(S(N)(=O)=O)cc2)ccc1OCC(=O)NC1CCCCC1 | -24%[46.1 µM] | -3% | ? | nt | -3% | 3% | -1% | nt
COc1ccc(OC)c(NC(=O)Nc2ccc(O)c3ccccc23)c1 | ? | ? | -2% | nt | -11% | nt | nt | nt
COc1ccc(-c2ccnc(-c3ccncc3)n2)cc1 | ? | ? | -7% | nt | -5% | -100% | -9% | nt
CC1CCCCC1NC(=O)CN(C)S(=O)(=O)c1cccc2cccnc12 (stereo unspecified) | -7% | -3% | -16% | nt | -13% | -1% | -1% | nt
Cc1ccc(C(=O)NC(=S)N2CCN(C)CC2)cc1Br | nt | nt | 16% | nt | -2% | 6% | -8% | nt
COc1ccc(N2C(=O)CCC(C(=O)N(C)C3CCCCC3)C2c2ccc(OC)c(OC)c2)cc1 (stereo unspecified) | -8% | -11% | -7% | ? | 17% | -5% | 1% | 0.4%
Cc1occc1C(=O)NC1CCCCCCC1 | ? | ? | 72%[activator] | -9% | ? | -97% | -74% | -2.3%
Cc1ccc(-c2nn3c(=O)cc(CN4CCN(C(=O)COc5ccc(C)c(C)c5)CC4)nc3s2)cc1 | nt | -16%[46.1 µM] | 0% | 0% | nt | nt | nt | 3.5%
CCCOc1ccc(C2C(=O)N(C3CCC(C)CC3)CC(=O)N2CCc2ccccc2)cc1OC (stereo unspecified) | nt | 4%[46.1 µM] | -11% | -10% | nt | nt | nt | 4.6%
COc1ccccc1N1CCN(C(=S)Nc2cccc(C)c2)CC1 | ? | ? | -24% | nt | 5% | 0% | 1% | nt
COc1ccc(-n2c(SCC(=O)Nc3nccs3)nc3c(c2=O)SCC3)cc1 | nt | nt | -9% | -18% | 4% | -51% | 13% | 2.5%
Clc1ccc(-c2nnc3n2CCCC3)cc1Cl | ? | 2% | 10% | -1% | -5% | -4% | 1% | 4.0%
COc1ccccc1/C=C1\SC(=S)N(CCC(=O)Nc2ccc(C(=O)O)c(O)c2)C1=O | -5%[46.1 µM] | 28%[46.1 µM] | 20% | nt | -9% | 15% | -1% | nt
CC(=O)N1c2ccc([N+](=O)[O-])cc2NC(=O)CC1C (stereo unspecified) | -9% | 18% | 0% | -3% | -2% | 2% | -14% | -3.0%
Cn1c(NC(=O)c2ccccc2Br)cc(=O)n(C)c1=O | nt | nt | -4% | -5% | -9% | -42% | -1% | 0.4%
CCOc1ccc(N2CC(C(=O)NCCCc3ccccc3)CC2=O)cc1 (stereo unspecified) | 17% | 1% | -12% | nt | 36% | nt | -4% | nt
COc1cccc(C(=O)Cn2c(N3CCCCC3)nc3c2c(=O)n(C)c(=O)n3C)c1 | -4% | -4% | -5% | 24% | 15% | -5% | 0% | -15%
O=C(N=C1SC2CS(=O)(=O)CC2N1Cc1ccc(F)cc1)C1CC1 (stereo unspecified) | 0%[46.1 µM] | 19%[46.1 µM] | 0% | nt | 11% | -2% | 0% | nt
C/C(=N\Nc1ccc(Cl)nn1)c1ccccc1O | ? | -1% | 8% | nt | ? | nt | nt | nt

Gathered by group: the compounds so far with bromine (2)
SMILES | MARV entry inh | LASV entry inh | StopGo reporter | Cruzain noTriton | RE007 growth inh | NS1 inh | SARS PLpro yeast | Cruzain inh Det
Cc1ccc(C(=O)NC(=S)N2CCN(C)CC2)cc1Br | nt | nt | 16% | nt | -2% | 6% | -8% | nt
Cn1c(NC(=O)c2ccccc2Br)cc(=O)n(C)c1=O | nt | nt | -4% | -5% | -9% | -42% | -1% | 0.4%

(continued)
SMILES | MARV entry inh | LASV entry inh | StopGo reporter | Cruzain noTriton | RE007 growth inh | NS1 inh | SARS PLpro yeast | Cruzain inh Det
CC(=O)Nc1ccc(S(=O)(=O)Nc2c(C)n(C)n(-c3ccccc3)c2=O)cc1 | 5% | -1% | 2% | -11% | 16% | ? | -1% | 8.6%
COc1ccc(C2/C(=C(/O)c3ccccc3)C(=O)C(=O)N2C)cc1 (stereo unspecified) | 8% | 3% | -9% | -5% | -7% | 11% | 1% | -10%
Cc1ccc(O)c(CN(C)Cc2cc(C)ccc2O)c1 | ? | 19% | 26% | nt | -25% | nt | nt | nt
COc1ccc(C2NC(C(=O)O)Cc3c2[nH]c2ccccc32)cc1OC (stereo unspecified) | -1% | 12% | 18% | -10% | -6% | ? | 2% | 2.4%
CC(=O)C1C(=O)CC(C)(O)C(C(C)=O)C1c1ccccc1 (stereo unspecified) | 18%[46.1 µM] | 10% | -9% | nt | 16% | nt | 0% | nt
CC1CCCCN1S(=O)(=O)c1cc2c3c(c1)CC(=O)N3CCC2 (stereo unspecified) | nt | 6%[46.1 µM] | -9% | -7% | nt | nt | nt | 0.6%
Cc1cc(-c2nnc(SCC(=O)Nc3nc(-c4ccc(Cl)cc4)cs3)o2)no1 | nt | nt | 10% | nt | -9% | 1% | -1% | nt
Cc1cc(C)c(OCC(=O)N(Cc2ccco2)Cc2ccco2)c(C)c1 | -13%[46.1 µM] | 1%[46.1 µM] | -16% | -9% | nt | nt | nt | -6.0%
O=C(Nc1cccc([N+](=O)[O-])c1)c1ccccc1 | nt | nt | 20% | nt | -18% | -31% | -2% | nt
COc1ccc(N2CCN(c3ccc([N+](=O)[O-])nc3)CC2)cc1 | 24%[46.1 µM] | 20% | 12% | nt | -8% | nt | 2% | nt
CCCNC(=O)CN(C)S(=O)(=O)c1ccc(F)cc1 | ? | 19% | -13% | -3% | 2% | ? | 3% | 0.5%
COc1ccc2c(c1)C(=O)N(c1ccccc1OC)C(=O)C2 | 25%&25% | -3% | -19% | -11% | -2% | ? | 0% | -4.7%
CCc1ncc(C)[nH]1 | nt | nt | -3% | nt | 7% | -8% | -1% | nt
COC(=O)COc1ccc(S(=O)(=O)Nc2ccc(NC(C)=O)cc2)cc1 | ? | -1% | nt | -4% | -5% | 4% | -5% | -1.5%
CC(C)N(CCc1ccncc1)C(=S)Nc1cccc(Cl)c1 | ? | ? | 0% | nt | -12% | nt | 2% | nt
C=CCCN(C1CCCC1)S(=O)(=O)c1ccccc1Br | nt | nt | -25% | nt | -2% | -11% | -4% | nt
